Screens (PubChem)
HNF4A DNA FP: change in binding of human HNF4 alpha to DNA; activity change, % at 10 µM; HNF4a-FITC DNA binding, fluorescence polarization, 1 h; hit rate 0.3% among 360,000; in the data active = activity change above about 30%, passing the limit was not always enough;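 note: controls were the assay level and a saturating level of protein; the project sought stronger binding though the title names inhibitors; some compounds called inactive have numbers as strong as hits; positive values seem to mean higher polarization but the record does not say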
Target sequence (P41235 whole entry, looked up): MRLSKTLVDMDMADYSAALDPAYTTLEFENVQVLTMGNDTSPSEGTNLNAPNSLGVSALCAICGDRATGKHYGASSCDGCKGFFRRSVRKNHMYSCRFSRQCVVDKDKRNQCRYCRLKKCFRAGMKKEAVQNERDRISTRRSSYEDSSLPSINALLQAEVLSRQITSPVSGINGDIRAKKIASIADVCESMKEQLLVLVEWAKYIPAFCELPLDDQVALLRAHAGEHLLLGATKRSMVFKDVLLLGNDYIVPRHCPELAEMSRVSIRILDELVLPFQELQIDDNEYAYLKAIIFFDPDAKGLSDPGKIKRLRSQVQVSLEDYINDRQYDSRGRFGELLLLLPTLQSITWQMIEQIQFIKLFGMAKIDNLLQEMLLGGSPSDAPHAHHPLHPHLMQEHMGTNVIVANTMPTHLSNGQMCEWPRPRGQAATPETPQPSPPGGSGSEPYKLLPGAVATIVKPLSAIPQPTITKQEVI
LANA-H2A inh: blocks KSHV LANA binding to histone H2A/H2B. cell-free LANA-H2A/H2B peptide, fluorescence polarization. inhibition, % (no concentration beside the values). hit rate 0.6% among 320,000; in the data active = inhibition mostly above about 10%, no sharp cut-off; inactive = mostly below about 6.7%;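 note: stock transfer was 7.5 nL into about 10 µL; 0% = median of vehicle wells and 100% = median of positive control wells; one replicate is shown; the record names a cut of 25% in any replicate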
RanGTP-Impb inh: disruptors of Ran-importin-beta complex formation – biochemical, FRET, CFP-Ran, YFP-importin-beta, homogeneous, primary screen; inhibition, % (no concentration beside the values); AID 2216; hit rate 1.1% among 300,000; cell-free CFP-Ran/YFP-importin-beta FRET ratio;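 active = most replicates above 15%; inconclusive = exactly half above 15%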;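 note: 0% = DMSO wells and 100% = Ran loaded with GDP instead of GTP; wells of about 40 µL received 100 nL stock; the first replicate is given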
ALR inh: inhibitors of human sulfhydryl oxidase ALR. inhibition, % (concentration not given with the values). AID 485317. purified ALR, DTT oxidation, H2O2 HRP-luminol luminescence. hit rate 3.8% among 290,000. P55789;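 active = mean and each replicate at 75% or more; inconclusive = only one of the two met; inactive = neither met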;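 note: stock transfer was 7.5 nL into about 7.5 µL; 0% = neutral wells and 100% = wells with inactivated enzyme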
Target sequence (P55789 whole entry, looked up): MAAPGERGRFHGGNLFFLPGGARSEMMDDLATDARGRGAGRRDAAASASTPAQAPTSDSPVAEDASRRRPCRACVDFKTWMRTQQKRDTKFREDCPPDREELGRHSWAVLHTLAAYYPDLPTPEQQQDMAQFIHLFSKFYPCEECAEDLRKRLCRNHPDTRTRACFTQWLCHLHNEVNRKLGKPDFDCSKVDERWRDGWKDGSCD
Beta2AR agonist: agonists of human beta-2 adrenergic receptor inducing internalization; P07550; Am2.2-beta2AR cells, FAP receptor internalization, flow cytometry; reference of the scale not given here; response, % (concentration not given with the values); hit rate 0.43% among 340,000; AID 504454;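 active = response above a set limit, near 3 SD of response in nonfluorescent compounds, cut at about 42% in these data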;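 note: stock transfer was 100 nL into about 11 µL; a reference agonist was the positive control; negative values mostly stem from fluorescent compounds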
Target sequence (P07550 whole entry, looked up): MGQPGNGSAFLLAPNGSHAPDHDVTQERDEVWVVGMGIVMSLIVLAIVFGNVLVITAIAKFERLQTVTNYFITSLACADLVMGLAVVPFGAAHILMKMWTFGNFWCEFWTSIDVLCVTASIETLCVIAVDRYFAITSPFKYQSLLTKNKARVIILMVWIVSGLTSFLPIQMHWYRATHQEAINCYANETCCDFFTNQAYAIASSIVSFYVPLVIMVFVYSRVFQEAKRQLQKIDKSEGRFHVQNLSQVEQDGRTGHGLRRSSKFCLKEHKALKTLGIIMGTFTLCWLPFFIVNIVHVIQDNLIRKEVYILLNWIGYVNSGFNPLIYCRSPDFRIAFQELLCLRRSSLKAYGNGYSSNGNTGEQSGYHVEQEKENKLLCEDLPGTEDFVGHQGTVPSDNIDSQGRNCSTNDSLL
Vif TR-FRET: inhibitors of Vif binding to APOBEC3G peptide, primary screen, biochemical, TR-FRET, GST-Vif 1-94, biotin-A3G peptide, dose response retest (AID 1117319). TR-FRET GST-Vif / biotin-A3G peptide binding; higher % means a stronger effect; test concentration not given here; strong numbers were not always called active. inhibition, %; hits with a dose series show IC50 in µM. hit rate 0.57% among 260,000;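 active = above the screen mean plus three standard deviations and confirmed in dose response; inconclusive = results disagree or hit not tested in dose response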;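 note: Vif residues 1-94 fused to GST binding biotinylated APOBEC3G peptide 110-148; 0% = full assay without inhibitor and 100% = GST in place of GST-Vif; retest series ran down from 100 µM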
Calb FLC: affects C. albicans growth with fluconazole. growth inhibition, % (test concentration not listed). C. albicans CaCi-2 (fluconazole-resistant clinical isolate) + fluconazole, Alamar Blue growth, 48 h. hit rate 0.57% among 300,000;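 active = most replicates above 75%; inconclusive = exactly half above 75%; inactive = most below 75%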;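 note: all wells also contain fluconazole at 8 µg/ml as a sub-toxic cotreatment; 0% = median of DMSO wells and 100% = median of geldanamycin control wells; wells of about 8 µL received 7.5 nL stock; the first replicate is given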
Starred values were filed as active, the others as inactive; ? = inconclusive; nt = not tested or not shown.

SMILES	HNF4A DNA FP	LANA-H2A inh	RanGTP-Impb inh	ALR inh	Beta2AR agonist	Vif TR-FRET	Calb FLC
COc1ccccc1-c1noc(CCCC(=O)NC2CCCC2)n1	-0.4	-1.9	0.3	4	3	nt	-7
COC(=O)c1cc(CNC(=O)c2ccc(S(=O)(=O)N(C)c3ccccc3)cc2)ccc1OC	1.3	nt	nt	nt	11	-13%	nt
O=[N+]([O-])c1ccc(Oc2cccnc2)c([N+](=O)[O-])c1	0.4	nt	nt	nt	-6	3%	nt
COc1ccccc1N1CCN(S(=O)(=O)c2ccccc2F)CC1	-2.9	2.2	6.0	-6	-8	2%	6
COc1ccc(CNc2nc3c(c(=O)n(Cc4ccc(Br)cc4)c(=O)n3C)n2C)cc1	-3.6	2.7	0.6	nt	5	0%	-10
CC(C)[C@H](NC(=O)C1CC(=O)N(c2ccc(F)cc2)C1)C(=O)N1CCCCC1 (stereo not given in full)	-2.9	3.5	5.4	-2	3	nt	nt
Cc1ccc(Cn2c(SCC(=O)NCC3CCCO3)nc3ccsc3c2=O)cc1 (stereo not given)	-1.3	-0.9	?	-1	10	9%	-3
Clc1ccc(-c2c[n+](Cc3ccc(Br)cc3)c3n2CCCCC3)cc1	1.4	-0.4	5.8	-11	0	nt	106*
CN(CC(=O)Nc1ccccc1Cl)C1CCCCC1	6.5	-1.3	-1.8	0	3	nt	-1
COCCn1ccc2c(OCC(=O)NCc3ccc(C)cc3)cccc2c1=O	-1.4	1.2	-1.7	0	-3	-7%	3
CCc1ccccc1N(C(=O)c1snc(C(N)=O)c1N)C(C(=O)NCC1CCCO1)c1ccc(N(C)C)cc1 (stereo not given)	-1.9	nt	?	nt	-4	nt	0
COc1ccc(OC)c(S(=O)(=O)N2CCN(c3ccccn3)CC2)c1	2.4	-1.2	-0.4	-6	-4	-2%	14
COc1ccc(S(=O)(=O)N2CCC(C(N)=O)(N3CCCCC3)CC2)cc1	-2.9	-4.5	-0.7	nt	1	-2%	-3
COc1ccccc1CCC(=O)OCC(=O)Nc1cc(S(=O)(=O)N2CCOCC2)ccc1C	0.0	-2.1	-0.9	-11	0	2%	1
Cc1cc(C(=O)COC(=O)CNC(=O)c2ccco2)c(C)n1Cc1ccco1	-3.7	1.4	0.0	-2	0	nt	4
CC(C)(CNC(=O)c1ccc(NS(=O)(=O)c2ccc(Br)cc2)cc1)N1CCOCC1	3.1	-3.2	1.5	2	0	-5%	-2
O=C(NCc1ccccc1)C1CCN(S(=O)(=O)N2CCCCCC2)CC1	-4.4	-0.9	?	-25	5	13%	7
O=C1CC(C(=O)Nc2ccccc2)C2(CCCC2)O1 (stereo not given)	-1.4	0.9	-0.4	-22	-3	2%	-7
COC(=O)c1c(C)[nH]c(C(=O)/C=C/c2ccccc2)c1C	-1.4	nt	-0.6	nt	0	nt	10
CCNC(=S)N(Cc1cccs1)Cc1cc2cc(OCC)ccc2[nH]c1=O	-2.0	1.9	0.6	-46	3	nt	3
C=C(Cl)COc1ccc2c(C)cc(=O)oc2c1	3.7	-0.9	-1.0	-4	-7	12%	-5
Cn1nnnc1Sc1ncnc2scc(-c3ccccc3Br)c12	2.2	-2.2	nt	-4	1	nt	nt
COc1ccc(N2C(=O)c3ccccc3NC23C(=O)N(C)c2ccccc23)cc1 (stereo not given)	-1.2	-2.0	3.9	nt	-9	4%	-1
CCCCN(C(=O)CN1C(=O)C2CCCCC2C1=O)c1c(N)n(CCCC)c(=O)[nH]c1=O (stereo not given)	-0.6	2.6	0.4	0	-2	12%	-6
COc1cc(CNCCO)cc(Cl)c1OCc1ccc(Cl)cc1Cl	1.0	3.3	7.5	-10	20	nt	-52
SMILES	HNF4A DNA FP	LANA-H2A inh	RanGTP-Impb inh	ALR inh	Beta2AR agonist	Vif TR-FRET	Calb FLC
COC(=O)C1CN(C(=O)COc2ccccc2C)c2ccccc2O1 (stereo not given)	-1.9	-2.4	0.5	-46	11	-9%	2
Cc1nn(C)c(C)c1S(=O)(=O)NCCc1ccc(Cl)cc1	3.0	1.6	0.1	-1	3	nt	5
Cc1ccc(N2C(=O)CC2(C#N)c2ccc(OCc3ccccc3)cc2)cc1 (stereo not given)	1.4	-0.7	3.4	-11	11	0%	-13
CCC(C)(C)n1nnnc1CN(Cc1cc2cc(OC)ccc2[nH]c1=O)C1CCCC1	-2.9	3.5	-5.1	-15	-4	2%	18
C=Cc1ccc(N=Cc2c(O)ccc3ccccc23)cc1	80	-4.2	1.7	nt	-18	-1%	18
Cc1c(C(=O)Nc2ccc3c(c2)OCO3)oc2ccccc12	-0.5	1.4	3.8	17	-1	nt	15
O=C(O)c1ccc2c(c1)C(=O)/C(=C/c1ccccc1)C2=O	-28	1.9	1.0	-6	-1	23%	6
CCn1c(SCC(=O)Nc2ccc(NC(=O)c3ccco3)cc2)nnc1-c1cccs1	5.8	-2.2	1.7	-46	-13	2%	-7
NC(=O)c1ccc(C(F)(F)F)n(Cc2ccc(F)c(F)c2)c1=O	-2.1	4.1	-2.3	1	-3	nt	6
CC(=O)Nc1ccccc1C(=O)C(=O)Nc1cccc(C(=O)NCc2ccc(C)cc2)c1	nt	0.8	2.1	-5	nt	28%	-2
COc1cc(NC(=S)NCCc2ccccc2)c(OC)cc1NC(=O)C(C)C	-1.2	1.0	5.8	-6	-8	1%	27
COc1ccc2c(c1)c(CC(=O)OCC(=O)N(C)C)c(C)n2C(=O)c1ccc(Cl)cc1	4.8	0.5	0.5	-7	35	nt	4
COc1ccccc1NC(=O)NC1(C(=O)N2CCN(C)CC2)CCCCC1	5.3	-1.8	0.4	-4	-4	nt	-3
CCn1c(=O)c(C(=O)Nc2ccsc2C(=O)OC)c(O)c2ccccc21	nt	-7.3	-0.5	-3	nt	6%	4
O=C(Oc1ccc(Br)cc1C(=S)N1CCOCC1)c1ccc(F)cc1	2.2	-2.5	0.9	47	-3	nt	6
O=C(CN1C(=O)c2cccc3cccc1c23)Nc1ccccc1	2.9	-2.0	?	-2	-7	8%	4
NC(=O)CC1C(=O)N(c2ccc(Cl)cc2)C(=S)N1NC(=O)c1cccc(F)c1 (stereo not given)	2.9	-2.4	0.7	22	-8	-2%	-14
COc1ccc2oc(=O)c(C(=O)N3CCN(c4ccc(F)cc4)CC3)cc2c1	5.9	-0.4	4.8	13	-4	18%	5
COCCn1c(=NC(=O)c2ccc3c(c2)OCO3)c(C#N)cc2c(=O)n3cccc(C)c3nc21	nt	nt	43*	nt	nt	4%	20
Cc1ccc(C(=O)Nc2ccccc2)cc1S(=O)(=O)Nc1ccc(Cl)cn1	-2.8	4.0	7.0	-1	-2	19%	?
NC1=NC[C@H](c2ccccc2)N1CCc1cc(C(F)(F)F)cc(C(F)(F)F)c1	-0.9	0.9	-1.4	-41	-4	nt	-15
CC(C)CC(=O)Nc1cc2nn(-c3ccccc3)nc2cc1Cl	2.0	-1.7	-1.7	nt	5	-2%	-18
Cc1ccc(/C=C2\Oc3cc(OCC(=O)NN)ccc3C2=O)o1	11	4.0	54*	-5	4	8%	-12
Cc1ccc(-c2nn(CC(=O)NC(C)c3ccccc3)c(=O)c3ccccc23)cc1 (stereo not given)	1.2	4.0	-1.8	-5	-5	-11%	-10
CCN(CC(=O)Nc1ccccc1OC)C(=O)CCc1ccccc1	1.8	9.0	1.0	nt	-1	nt	0
SMILES	HNF4A DNA FP	LANA-H2A inh	RanGTP-Impb inh	ALR inh	Beta2AR agonist	Vif TR-FRET	Calb FLC
Cc1cccc(C2c3[nH]c4ccccc4c3CCN2C(=O)c2cc(CC(C)C)nc(C)n2)n1 (stereo not given)	-2.5	0.1	?	-8	2	-7%	18
COc1ccc(N2CCc3c(C)nc4c(OC)cc(OC)cc4c32)c(OC)c1	7.4	-2.1	-3.2	-19	-1	6%	3
CCN1C(=O)C2C(C1=O)N1C(c3cccs3)C3C(=O)N(CC)C(=O)C3N1C2c1cccs1 (stereo not given)	1.3	1.3	0.3	-17	2	1%	-8
CN(Cc1ccco1)c1ncnc2ccc(-c3ccc4c(c3)OCO4)cc12	0.3	3.6	nt	-1	0	nt	nt
CS(=O)(=O)NN1C(=O)c2ccccc2NC1c1ccccc1F (stereo not given)	2.5	-6.4	0.1	-16	-11	-10%	3
Cc1nc2nc(Cc3ccccc3)nn2c(C)c1Cl	-4.0	-4.3	1.7	-12	-5	?	6
CC(C)CC1(C(=O)O)NC(c2ccccc2O)C2C(=O)N(C(C)C)C(=O)C21 (stereo not given)	-0.8	-4.0	2.0	93*	12	7%	0
CCOCCCN1CC(=O)N2[C@@H](Cc3c([nH]c4ccccc34)C2(C)C)C1=O	-1.7	-2.3	0.6	-11	3	-8%	12
CN1CCCN(S(=O)(=O)c2cccc(Cl)c2Cl)CC1	-0.9	4.2	3.8	2	3	7%	-6
CC(C)Oc1cccc(C(=O)N/N=C/c2ccoc2)c1	-1.4	-0.8	nt	-6	-3	nt	27
COc1ccc2c(c1)C(C)=CC(C)(C)N2C(=O)C(C)N1C(=O)c2ccccc2C1=O (stereo not given)	-1.0	2.4	5.8	1	5	11%	-4
Cn1cnc2cc(OC(=O)c3ccccc3)ccc21	3.5	-2.3	0.5	-3	3	7%	5
O=C(COC(=O)c1ccccn1)NCCc1ccc(Cl)cc1	-0.9	-2.0	nt	-1	-1	-13%	nt
Cc1c(C(=O)N2CCCCC2)c(S(=O)(=O)N2CCc3ccccc32)c(C)n1C	1.4	6.1	1.8	-1	2	3%	0
O=C(COc1ccccc1[N+](=O)[O-])OCCCOC(=O)COc1ccccc1[N+](=O)[O-]	-1.5	0.5	3.7	0	3	nt	1
OCC1(Cc2cccc(F)c2)CCN(Cc2ccc3cccc(F)c3n2)CC1	3.2	5.8	1.2	-29	1	-3%	38
O=C(CSc1ccc(-c2ccco2)nn1)NCCc1ccccc1	1.9	3.4	-0.5	4	-10	-19%	14
Cc1cccc(OCCCC(=O)Nc2ccc(S(N)(=O)=O)cc2)c1	-1.4	-2.4	nt	-4	-4	?	0
Cc1cc(OCCN2CCCC2)ccc1[N+](=O)[O-]	2.9	-0.3	-6.1	-6	9	5%	-3
COc1ccc(-c2csc(NC(=O)CN3C(=O)C4CC=CCC4C3=O)n2)cc1 (stereo not given)	0.8	-0.3	nt	8	12	nt	nt
CC1CN(c2ccc(C(F)(F)F)cc2[N+](=O)[O-])CCN1S(C)(=O)=O (stereo not given)	1.5	4.7	-1.1	-3	-9	16%	2
Cc1ccc(NC(=O)CSc2nnc(NC(=O)C3CC3)s2)cc1C	-2.1	-4.7	0.5	-1	3	-6%	0
CCN(CC)c1ccc(C(=O)OCC(=O)NC2CCCCC2C)cc1 (stereo not given)	0.1	-4.3	-1.9	-2	10	-8%	15
CC(=O)c1c(C)[nH]c(C(=O)OCc2ccc(Br)cc2)c1C	6.1	1.8	-0.1	-17	-8	3%	11
CC(=O)Nc1ccc(S(=O)(=O)Nn2cnnc2)cc1	-3.2	5.1	2.2	1	0	3%	-1
COc1ccc(NC(=O)c2ccc(Cl)c(NC(=O)c3ccncc3)c2)cc1	nt	3.1	2.1	1	nt	nt	-8
COc1ccc(C(C)=O)cc1CN1C(=O)C(C)N(c2ccc(C)cc2)C1=O (stereo not given)	-2.7	-2.9	-0.4	-11	-17	-1%	-8
CC(O/N=C(\N)c1ccccc1)C(=O)Nc1cccc(C(F)(F)F)c1 (stereo not given)	-5.0	-7.9	nt	-1	-7	nt	nt
Cc1cc(-n2cccn2)ccc1CN1CCN(CC(C)C)C(CCO)C1 (stereo not given)	-2.6	15	-0.5	6	-9	-11%	-5

Reprinted at random: 2 compounds from above.
SMILES	HNF4A DNA FP	LANA-H2A inh	RanGTP-Impb inh	ALR inh	Beta2AR agonist	Vif TR-FRET	Calb FLC
CCC(C)(C)n1nnnc1CN(Cc1cc2cc(OC)ccc2[nH]c1=O)C1CCCC1	-2.9	3.5	-5.1	-15	-4	2%	18
Cn1cnc2cc(OC(=O)c3ccccc3)ccc21	3.5	-2.3	0.5	-3	3	7%	5

Rows are unselected; about 6.3% have a hit in one of these screens.
